Source: PubChem BioAssay (several laboratories)
ROMK primary – human ROMK K+ channel modulation, primary screen | Tet-inducible ROMK, thallium flux fluorescence; actives lie on both sides | B-score at 10 µM | 2% of 130,000 active;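 active = signal ratio slope over the read window, or its plate-corrected B-score, at least 3 SD from the plate mean, either direction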;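 also: B-score of the F/F0 ratio slope over 7 to 12 s after thallium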
Target sequence (P48048 whole entry, looked up): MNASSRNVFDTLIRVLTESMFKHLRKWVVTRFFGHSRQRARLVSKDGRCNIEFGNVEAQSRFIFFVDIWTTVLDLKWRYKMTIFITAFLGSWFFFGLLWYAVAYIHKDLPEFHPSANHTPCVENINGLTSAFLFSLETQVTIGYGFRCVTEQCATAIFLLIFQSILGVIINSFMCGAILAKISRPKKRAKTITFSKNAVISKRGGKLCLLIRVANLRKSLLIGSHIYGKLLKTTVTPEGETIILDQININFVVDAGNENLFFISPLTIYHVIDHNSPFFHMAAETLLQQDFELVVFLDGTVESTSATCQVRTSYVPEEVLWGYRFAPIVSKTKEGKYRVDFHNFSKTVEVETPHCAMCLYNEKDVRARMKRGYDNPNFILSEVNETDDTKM
PMI act – activators of human phosphomannose isomerase | P34949 | purified human PMI, coupled resazurin fluorescence, 20 min; active compounds read high; 1 = vehicle control, 0 substrate-free wells | activation factor at 20 µM | 0.005% of 190,000 active;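 active = activation factor of 2 or more at 20 µM, relative to plate controls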
PMI act satM6P – increases human PMI activity with near-saturating mannose 6-phosphate | P34949 | coupled PMI enzyme assay, resazurin fluorescence, 20 min; active compounds read high; 1 = untreated enzyme, 0 = substrate-free blank | activation factor at 20 µM | 0.34% of 190,000 active | AID 1216;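 active = activation factor of 2 or more at 20 µM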
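Test system: human phosphomannose isomerase with PGI, G6PDH, diaphorase coupling enzymes; Amount: PMI at 15 ng/mL final; Reagent: Mannose-6-phosphate 1.0 mM (near-saturating) plus 0.22 mM NADP+; Timing: 20 min, room temperature; Technique: resorufin fluorescence at Ex 544/Em 590 nm; Dosing: 20 µM single dose.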
S1P3 antag – antagonists of human S1P3 receptor; 0.27% of 170,000 active; Q99500; CHO S1P3 NFAT-BLA reporter, FRET fluorescence, antagonist mode; AID 485; inhibition, % at 4.98 µM;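 active = inhibition above the plate cutoff, the mean inhibition of test wells on that plate plus 3 SD, cut at about 28% in these data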;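 also: cells challenged with S1P at its EC80 of 0.8 µM; blue over green emission ratio from cleaved BLA substrate after 4 h stimulation; 0% = S1P-stimulated wells and 100% = unstimulated DMSO-only wells; some compounds past the cut are filed as inactive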
Diaph inh CS – counter-screen for diaphorase-based assays: diaphorase inhibitors and chemical oxidizers | diaphorase resazurin-to-resorufin fluorescence, NADH, 16 min; bacterial (C. kluyveri) enzyme, not human | inhibition, % at 20 µM | 0.69% of 190,000 active;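 active = primary screen inhibition at 20 µM above a set limit, cut at about 50% in these data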;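 also: plate controls were DMSO with full reaction for no effect and wells lacking NADH for full effect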
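System: Bacterial diaphorase enzyme (C. kluyveri) | Incubation: 16-min room-temperature incubation before reading | Benchmarks: No-NADH positive control and DMSO neutral control | Measured by: Resorufin fluorescence 544/590 nm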
Diaphorase act – activates diaphorase or chemically reduces, flagging diaphorase assay artifacts. 0.005% of 190,000 active. activation factor at 20 µM. AID 1229. Diaphorase/resazurin coupled assay, resorufin fluorescence, 16 min; active compounds read high; 1 = vehicle wells, 0 = NADH-free wells;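 active = diaphorase activity raised at least twofold by the compound at 20 µM; inactive = activation factor below 2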
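Measured by – red resorufin fluorescence at 544/590 nm excitation/emission · Test system – Clostridium kluyveri diaphorase, purified enzyme · Incubation – reaction time 16 min, room temperature · Buffer or medium – 50 mM HEPES pH 7.4 with 4.542 mM MgCl2, 0.005% Tween 20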
* hit, by the source's call; nt = no result given; & = joins results of further samples. This is a subset; count on the stated rates, not on these rows.

SMILES | ROMK primary | PMI act | PMI act satM6P | S1P3 antag | Diaph inh CS | Diaphorase act
O=C(NCc1cccnc1)c1cc(-c2ccco2)on1 | 2.2 | 0.9 | 1 | -30 | -2 | 1
COc1ccc(Cn2cc(C(=O)O)c(=O)c3ccccc32)cc1 | -0.076 | 1 | 0.9 | -9 | 5 | 0.9
CC(C)(C)c1n[nH]c(=S)n(N)c1=O | 0.064 | 1 | 1 | -27 | 13 | 0.9
Cc1cc(NS(=O)(=O)c2ccc(N)cc2)no1 | nt | 1.1 | 1.1 | 3 | 2 | 1
C[C@H]1O[C@@H](O[C@H]2[C@@H](O)C[C@H](O[C@H]3[C@@H](O)C[C@H](O[C@H]4CC[C@@]5(C)[C@H](CC[C@@H]6[C@@H]5C[C@@H](O)[C@]5(C)[C@@H](C7=CC(=O)OC7)CC[C@]65O)C4)O[C@@H]3C)O[C@@H]2C)C[C@H](O)[C@@H]1O | nt | 1.1 | 1.1 | -12 | 8 | 0.9
COc1ccc2c(c1)c(CC(=O)O)c(C)n2C(=O)c1ccc(Cl)cc1 | nt | 1 | 1 | 8 | 19 | 0.8
CC/C(=C/c1sc2ccc(C)cc2[n+]1CCO)SC | 0.26 | 1.8 | 2.5* | -12 | 19 | 0.8
CN(C)CCC=C1c2ccccc2CCc2ccccc21 | nt | 1 | 0.9 | -3 | 8 | 0.9
NCCNCCNCCN | nt | 1.2 | 1.1 | -2 | -17 | 1.2
CCO/C([O-])=N/c1c[n+](N2CCOCC2)no1 | -1.5 | 1 | 0.9 | -5 | 6 | 0.9
CC(=O)Nc1ccc(Oc2ncccn2)cc1 | nt | 1 | 1.1 | nt | 8 | 0.9
CC(=O)OC(C)C[N+](C)(C)C (centres undefined) | -0.0034 | 0.9 | 0.9 | 9 | 13 | 0.9
CCCn1c(=O)[nH]c(=O)c2[nH]cnc21 | nt | 1.1 | 1.1 | -8 | -2 | 1
CCn1cc(C(=O)O)c(=O)c2cc3c(cc21)OCO3 | nt | 1 | 1 | -12 | -5 | 1
NCCCC(=O)O | nt | 1.1 | 1 | 7 | -10 | 1.1
CCOC(=O)N1CCC(=C2c3ccc(Cl)cc3CCc3cccnc32)CC1 | nt | 1&0.8 | 0.9&0.9 | 13&9 | 20&28 | 0.8&0.7
CC1CCc2cc(F)cc3c(=O)c(C(=O)O)cn1c23 (centres undefined) | nt | 0.9 | 0.9 | 3 | 13 | 0.9
Nc1nc(Cl)nc2c1ncn2[C@H]1C[C@H](O)[C@@H](CO)O1 | nt | 1&1 | 0.9&1 | 6&5 | 7&11 | 0.9&0.9
O=C(O)CC(O)C(=O)O (centres undefined) | 0.6 | 1 | 1 | 16 | 2 | 1
CN(C)CCOC(c1ccccc1)c1ccccc1 | nt | 1.1&1 | 1.1&1 | 7&11 | 14&-12 | 0.9&1.1
C[C@]12CC[C@@H]3c4ccc(O)cc4CC[C@H]3[C@@H]1CC[C@@H]2O | nt | 1.1 | 1.1 | 4 | 2 | 1
C[C@]12CCC(=O)C=C1CC[C@@H]1[C@@H]2C(=O)C[C@@]2(C)[C@H]1CC[C@]2(O)C(=O)CO | -0.035 | 1.2 | 1.3 | 0 | 10 | 0.9

14 structures from above, arranged by number of heavy atoms, highest first.
SMILES | ROMK primary | PMI act | PMI act satM6P | S1P3 antag | Diaph inh CS | Diaphorase act
CCOC(=O)N1CCC(=C2c3ccc(Cl)cc3CCc3cccnc32)CC1 | nt | 1&0.8 | 0.9&0.9 | 13&9 | 20&28 | 0.8&0.7
C[C@]12CCC(=O)C=C1CC[C@@H]1[C@@H]2C(=O)C[C@@]2(C)[C@H]1CC[C@]2(O)C(=O)CO | -0.035 | 1.2 | 1.3 | 0 | 10 | 0.9
COc1ccc2c(c1)c(CC(=O)O)c(C)n2C(=O)c1ccc(Cl)cc1 | nt | 1 | 1 | 8 | 19 | 0.8
COc1ccc(Cn2cc(C(=O)O)c(=O)c3ccccc32)cc1 | -0.076 | 1 | 0.9 | -9 | 5 | 0.9
CN(C)CCC=C1c2ccccc2CCc2ccccc21 | nt | 1 | 0.9 | -3 | 8 | 0.9
O=C(NCc1cccnc1)c1cc(-c2ccco2)on1 | 2.2 | 0.9 | 1 | -30 | -2 | 1
Nc1nc(Cl)nc2c1ncn2[C@H]1C[C@H](O)[C@@H](CO)O1 | nt | 1&1 | 0.9&1 | 6&5 | 7&11 | 0.9&0.9
Cc1cc(NS(=O)(=O)c2ccc(N)cc2)no1 | nt | 1.1 | 1.1 | 3 | 2 | 1
CCCn1c(=O)[nH]c(=O)c2[nH]cnc21 | nt | 1.1 | 1.1 | -8 | -2 | 1
CC(C)(C)c1n[nH]c(=S)n(N)c1=O | 0.064 | 1 | 1 | -27 | 13 | 0.9
CC(=O)OC(C)C[N+](C)(C)C (centres undefined) | -0.0034 | 0.9 | 0.9 | 9 | 13 | 0.9
NCCNCCNCCN | nt | 1.2 | 1.1 | -2 | -17 | 1.2
O=C(O)CC(O)C(=O)O (centres undefined) | 0.6 | 1 | 1 | 16 | 2 | 1
NCCCC(=O)O | nt | 1.1 | 1 | 7 | -10 | 1.1
